Screens from PubChem.
Menin MLL FP FL – qHTS Assay for Inhibitors Targeting the Menin-MLL Interaction in MLL Related Leukemias: Competition With Fluorescein Labeled MLL-derived Peptide; Fluorescence polarization, fluorescein-MLL peptide displacement from menin; FP activity change, % at 61.4 µM; 290,000 tested, under 10 active; AID 1766, 2009; inconclusive = falling polarisation curve, or a change in total fluorescence; inactive = total fluorescence flat and polarisation flat or rising; no compound was filed as active; the % refers to the polarisation; negative = inhibition;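 note: % of control where 0% means no effect; inhibitors lower the polarisation; unlabelled MLL peptide was the positive control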
TRPML1 ag – qHTS for Agonists of the Human Mucolipin Transient Receptor Potential 1 (TRPML1) | Mucolipin-1 (Homo sapiens), Q9GZU1 | TRPML1-expressing cells, Ca2+ dye fluorescence, FDSS; host cell line not named in the record; reference of the full effect not given here | activation, % (test concentration not listed) | 0.12% of 410,000 active | AID 624414, 2012; in the data active = activation above about 50%; inconclusive = about 30% to 50%; inactive = below about 30%; note: 0% is about no effect; the text of the record puts the active cut at 80%
Target sequence (Q9GZU1 whole entry, looked up): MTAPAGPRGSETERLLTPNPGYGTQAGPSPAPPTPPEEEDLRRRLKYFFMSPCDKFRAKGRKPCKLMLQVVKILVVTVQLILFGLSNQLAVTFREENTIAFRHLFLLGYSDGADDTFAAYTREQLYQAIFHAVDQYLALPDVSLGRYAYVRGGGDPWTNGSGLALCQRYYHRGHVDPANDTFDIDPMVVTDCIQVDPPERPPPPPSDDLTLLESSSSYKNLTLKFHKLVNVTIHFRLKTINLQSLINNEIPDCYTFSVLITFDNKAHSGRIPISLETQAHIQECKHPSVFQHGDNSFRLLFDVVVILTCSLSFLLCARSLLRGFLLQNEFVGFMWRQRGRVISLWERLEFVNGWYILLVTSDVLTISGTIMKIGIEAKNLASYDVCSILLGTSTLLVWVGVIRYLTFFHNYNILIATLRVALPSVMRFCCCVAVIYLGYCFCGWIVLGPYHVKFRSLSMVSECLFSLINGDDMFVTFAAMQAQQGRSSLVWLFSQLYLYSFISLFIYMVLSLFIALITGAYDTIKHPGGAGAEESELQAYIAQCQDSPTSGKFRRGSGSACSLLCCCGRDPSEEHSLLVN
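Tet-induced TRPML1-DL cells, 1,500 per well, cultured overnight, were loaded with a no-wash Ca2+ dye for 45–90 min. Calcium fluorescence was recorded on the FDSS for 110 s after compound addition, before the EC80 agonist (4 uM 54-4) was added.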
Sfp inh – qHTS Assay for Inhibitors of Bacillus subtilis Sfp phosphopantetheinyl transferase (PPTase). 4'-phosphopantetheinyl transferase ffp (Bacillus subtilis), Q9F4F7. Biochemical Sfp PPTase activity, qHTS. Potency, µM, for the others: max response, negative = inhibition, actives largely listed as inhibitors. 3.5% of 310,000 active. AID 1490, 2009; active = well fitted inhibition curve with a large enough effect; inconclusive = small, poorly fitted or top-dose-only effect, or another doubt; inactive = no such curve, though single readings can be large or run the other way;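 note: the enzyme is Sfp with the accession as filed and its product quenches rhodamine fluorescence; potency is the fitted concentration of half-maximal effect; 0% = enzyme reaction without inhibitor and -100% = no enzyme wells; top concentration of the series not given in the record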
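Fluorescence-quenching assay with 15 nM Sfp, 5 uM rhodamine-CoA and 12.5 uM BHQ-2-labelled ybbR peptide in pH 7.6 Hepes/MgCl2 buffer. Enzyme was pre-incubated with compound for 15 min at room temperature. Rate was taken from the 30-min fluorescence change (525/598 nm).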
PINK1 expr mod – A Quantitative High throughput Screen to Identify Chemical Modulators of PINK1 Expression; Potency, µM (series often up to 76.6 µM), inactives show top-dose activation (PINK1 increase), most hits filed as activators; 0.2% of 410,000 active; PINK1 immunofluorescence, high-content cytometry, 24 h; active = well fitted activation curve with a large enough effect; inconclusive = small, poorly fitted or top-dose-only effect; inactive = flat fitted curve, though single readings scatter; cell line not stated here;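 note: potency is the fitted concentration of half-maximal effect; % of control where 0% means no effect; nearly all actives have a fitted effect of over 65% in size; a mitochondrial uncoupler was the plate control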
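Cells are seeded, rested 12 hours, then given compound at five concentrations or DMSO for 24 hours. After fixation, blocking and antibody staining, PINK1 amount and mitochondrial localization are scored; CCCP serves as control.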
ClpP mod – qHTS Assay for Activators of ClpP; ATP-dependent Clp protease proteolytic subunit (Bacillus subtilis (strain 168)), P80244; purified B. subtilis ClpP, FRET peptide cleavage, 20 min; Potency, µM (titrated, usually from 57.5 µM), for inactives: at the highest dose activity change, negative = active; 1.9% of 340,000 active; AID 651965, 2013; active = well fitted falling curve with a large enough effect; inconclusive = small, poorly fitted or top-dose-only effect; inactive = no such curve, though single readings can be large or run the other way; note: potency is the fitted concentration of half-maximal effect; the source files actives as falling curves though it sought activators and does not explain the sign; nearly all actives have a fitted effect of over 65% in size; many hits overshoot -100%
Target sequence (P80244 whole entry, looked up): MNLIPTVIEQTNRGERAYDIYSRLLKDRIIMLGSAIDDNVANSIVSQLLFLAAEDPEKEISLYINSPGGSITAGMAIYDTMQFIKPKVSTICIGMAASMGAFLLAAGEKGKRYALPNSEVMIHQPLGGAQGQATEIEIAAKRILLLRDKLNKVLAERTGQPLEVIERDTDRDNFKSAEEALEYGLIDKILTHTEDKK
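Buffer: 100 mM Tris/HCl pH8, 100 mM KCl, 0.05% low protease BSA, 2.5% glycerol, 0.01% Tween-20. ClpP 10 microg/mL final; 20 min RT; delta FRET normalized to ADEP and DMSO controls.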
TRPV1 potentiator – HTS Assay for Compounds that Act as Potentiators of the Vanilloid Receptor 1; Transient receptor potential cation channel subfamily V member 1 (Homo sapiens), Q8NER1; TRPV1-expressing cells, Fluo-8 calcium influx, capsaicin EC20 potentiation; host cell line not named in the record; control for the full effect not named in the record; potentiation, % at 8.33 µM; 0.02% of 320,000 active; active means potentiation above 80%; inconclusive means 30% to 80%; inactive means below 30%; note: 0% is about no effect
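Fluo-8 calcium influx in TRPV1-expressing cells, kinetic read (ex 480/em 520 nm). Compound added and read 3 min for agonist activity, followed by capsaicin at EC20 final and 2 min further read for enhancement.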
TRPML1 blocker – qHTS for Inhibitors of the Human Mucolipin Transient Receptor Potential 1 (TRPML1). Mucolipin-1 (Homo sapiens), Q9GZU1. TRPML1-inducible cells, Ca2+ dye fluorescence, FDSS; stronger effect = lower value; inhibition of EC80 agonist-evoked calcium signal. activity change, negative = inhibition, % (no concentration beside the values). 0.02% of 390,000 active; in the data active means activity change below about -50%; inconclusive means about -30% to -50%; inactive means above about -30%;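 note: stimulus is agonist 54-4 at its EC80 concentration; % is set by controls: 0 for no effect and ±100 for the full control effect; compound concentration not given in the record; the text of the record puts the active cut at -80%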
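Tet-induced TRPML1-DL cells loaded with Ca8 no-wash calcium dye were read kinetically on FDSS. Compound addition was followed by EC80 agonist 54-4 (4 uM final); inhibition was read over 110 s.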
Starred values were filed as active, the others as inactive; ? = inconclusive; . = not tested or not shown; [ ] = remark or other dose.

Values run as follows: ClpP mod, TRPML1 blocker, TRPV1 potentiator, Menin MLL FP FL, Sfp inh, TRPML1 ag, PINK1 expr mod
1) Cc1ccc(S(=O)(=O)N(C)C)cc1NC(=O)COC(=O)COc1ccccc1[N+](=O)[O-]
  ., 14.7, 7.4, -1.0, 16.1%, 1.4, 1.3%
2) CCNC(=S)N(CCCO)Cc1cc2cc3c(cc2[nH]c1=O)OCCO3
  ., 26.9, ?, 0.9, 8.3%, -0.2, 0.1%
3) CCCCCn1c(=O)[nH]c2cc(C(=O)Nc3ccc(F)cc3)ccc2c1=O
  0.2%, -3.7, ., ., ., 0.0, 2.2%
4) COCc1c(C(=O)OCC(=O)NCc2ccco2)oc2ccccc12
  -10.1%, 10.1, ., ., ., -0.6, 2.7%
5) COC(=O)c1c(NC(=O)c2nc3ccccc3s2)sc2c1CCN(C(C)=O)C2
  -4.3%, 8.2, -7.4, 4.2, ?, -0.7, 9.9%
6) O=C(COc1ccccc1Cl)Nc1ccc2nc(SCC(=O)N3CCCC3)sc2c1
  -14.3%, 7.4, ., ., ., 2.4, 0.4%
7) Cc1ccc(NS(=O)(=O)c2cccc(C(=O)NC3CCN(Cc4ccccc4)CC3)c2)cc1
  -1.6%, -5.5, ., ., ., 0.9, 1.2%
8) Cc1ccc2c(=O)cc(C(=O)Nc3ccc(S(=O)(=O)N4CCCCCC4)cc3)oc2c1
  -3.6%, -8.2, ., ., ., 0.6, 3.6%
9) NC(=O)C[C@@H]1NC(=O)CNC(=O)c2cc([N+](=O)[O-])cc(I)c2NCCC(C(N)=O)NC1=O (some centres not stated)
  -1.5%, -2.4, 8.0, 0.7, -12.4%, -0.1, -0.1%
10) CCN(CC)CCN1C2=C(C(=O)CC(C)(C)C2)C(c2cccc(F)c2)C2=C1CC(C)(C)CC2=O
  ., -3.3, -4.5, -0.6, 23.1%, -0.4, -1.2%
11) Cc1nnc(SCc2cc(=O)oc3cc(O)ccc23)n1Cc1ccccc1
  -7.5%, -10.7, -8.4, -2.2, 8.0%, 1.7, -1.1%
12) COc1ccc(S(=O)(=O)NCCc2sc3nc(-c4ccc(C)cc4)nn3c2C)cc1F
  0.1%, 24.2, ., ., ., -0.2, 1.0%
13) COc1ccc(N(C)S(=O)(=O)c2ccc(C)cc2)c([N+](=O)[O-])c1
  ., 14.0, -4.5, -1.8, -4.2%, 2.9, -1.4%
14) NC(=O)c1ccccc1N/C=C/C(=O)c1ccco1
  -7.5%, 1.6, -13.1, 8.1, 6.1%, -0.9, 0.2%
15) Cc1ccc(N2C(=O)C3C(C2=O)N2C(c4cccs4)C4C(=O)N(c5ccc(C)cc5)C(=O)C4N2C3c2cccs2)cc1 (configuration not stated)
  1.1%, -3.1, 12.4, 2.1, 8.9%, 0.0, 1.3%

Compound profiles, from the list above. Screens in order: ClpP mod, TRPML1 blocker, TRPV1 potentiator, Menin MLL FP FL, Sfp inh, TRPML1 ag, PINK1 expr mod
Shown for NC(=O)C[C@@H]1NC(=O)CNC(=O)c2cc([N+](=O)[O-])cc(I)c2NCCC(C(N)=O)NC1=O (some centres not stated) → -1.5%, -2.4, 8.0, 0.7, -12.4%, -0.1, -0.1%
Shown for Cc1ccc(NS(=O)(=O)c2cccc(C(=O)NC3CCN(Cc4ccccc4)CC3)c2)cc1 → -1.6%, -5.5, ., ., ., 0.9, 1.2%
Shown for Cc1ccc(S(=O)(=O)N(C)C)cc1NC(=O)COC(=O)COc1ccccc1[N+](=O)[O-] → ., 14.7, 7.4, -1.0, 16.1%, 1.4, 1.3%

The list continues.
Values run as follows: ClpP mod, TRPML1 blocker, TRPV1 potentiator, Menin MLL FP FL, Sfp inh, TRPML1 ag, PINK1 expr mod
16) COc1ccc(OC)c(NC(=O)Cn2cc(C=O)c3ccccc32)c1
  ., 1.5, -3.7, 0.1, 13.7%, -0.3, -1.0%
17) COc1cc2cc(C(c3nnnn3C(C)(C)C)N3CCc4ccccc4C3)c(=O)[nH]c2cc1OC (configuration not stated)
  ?, 5.3, 2.6, 12.0, -5.2%, 0.1, 0.0%[38.3 µM]
18) Cc1ccc(C(=O)N2CCCC(Nc3ccc(C)c(C)c3)C2)c(=O)[nH]1 (configuration not stated)
  -0.8%, -15.9, ., ., ., -0.4, 2.5%
19) Cc1ccc(S(=O)(=O)Oc2ccc(/C=C(/NC(=O)c3ccccc3)C(=O)NCCCC(=O)O)cc2)cc1
  ., -9.0, -3.4, 3.1, -3.3%, 0.7, -0.5%
20) O=C(CSc1ccc2nnc(-c3ccccn3)n2n1)N1CCN(c2ccccc2)CC1
  -2.3%, 5.0, ., 2.0, -27.6%, 0.2, 4.2%
21) Cc1ccc(/C(N)=N/OC(=O)C(C)c2ccc([N+](=O)[O-])cc2)cc1 (configuration not stated)
  ., 84.1, 1.5, 9.3, -4.4%, 1.6, 0.1%
22) Cc1cc(-c2ccc(C)c(S(=O)(=O)N3CCN(c4ccccn4)CC3)c2)on1
  -9.8%, 44.6, -8.7, 2.7, 16.3%, 3.2, -0.9%
23) CCOc1ccc(N2Cc3ncccc3C2=O)cc1
  -4.1%, -12.4, 13.3, 8.5, 4.2%, -0.1, 6.8%[38.3 µM]
24) Cc1cccc(C)c1OCc1nc2c3cnn(-c4ccccc4Br)c3ncn2n1
  -2.8%, -20.4, ., ., ., 1.8, 1.1%
25) O=C(CCN1CCCCO1)N1CCCC(Nc2cccc(F)c2)C1 (configuration not stated)
  ., 8.9, -13.9, ., 14.7%, 0.4, 0.4%
26) Cn1cnc([N+](=O)[O-])c1Sc1ncn[nH]1
  1.8%, -4.9, -9.6, -1.5, 0.8%, 0.1, 0.7%
27) COc1ccc(C(=O)N/N=C/c2cc(Br)ccc2O)cc1OC
  -3.6%, 5.9, -1.0, 3.6, 10.9%, 0.0, 5.0%
28) Cn1cccc1C(=O)NC(=O)COC(=O)Cc1coc2ccc3ccccc3c12
  -10.4%, 21.8, 9.9, 2.3, ?, 3.7, 10.7%
29) CCOC(=O)NC(Cc1c[nH]c2ccccc12)C(=O)NCCc1ccc(S(N)(=O)=O)cc1 (configuration not stated)
  ., -7.9, 4.9, -17.5, -4.3%, -0.5, 1.0%
30) CN1C(=O)C2(c3ccccc31)c1c(oc3ccccc3c1=O)C(=O)N2CCO (configuration not stated)
  0.8%, -12.2, 18.1, 2.4, 16.7%, 0.5, 0.1%
31) CCOc1cccc(N2C(=O)CC(NCc3ccc(S(N)(=O)=O)cc3)C2=O)c1 (configuration not stated)
  -5.8%, 6.6, 4.4, -1.8, 0.8%, -0.7, 2.7%
32) Cc1onc(C(=O)Nc2sc3c(c2C(N)=O)CCCC3)c1[N+](=O)[O-]
  -3.4%, 47.6, 1.4, 0.1, 25.1µM*, 0.6, -1.4%
33) COC(=O)c1ccccc1C(=O)N1CCCC(C(=O)c2ccc(OC)c(OC)c2)C1 (configuration not stated)
  -3.3%, 2.8, 0.9, ., 9.7%, 0.1, -1.0%
34) CCOC(=O)c1cc(-c2ccccc2)sc1NC(=O)CC
  -10.6%, -1.4, -0.3, 10.8, -20.9%, 3.0, 5.3%
35) C[C@@H]1CN([C@H](C)CO)C(=O)c2cc(NC(=O)Nc3ccc4c(c3)OCO4)ccc2O[C@H]1CN(C)Cc1ccncc1
  0.4%, 11.0, ., ., ., -0.6, -0.2%
36) COc1ccc([C@H]2C[C@H](O)[C@@H](n3cc(-c4ccc(F)cc4)nn3)CN2C(=O)c2cccs2)cc1
  0.7%, -7.1, ., ., ., 0.6, 0.3%
37) c1ccc(-c2noc(C34CC5CC(CC(C5)C3)C4)n2)cc1
  -0.5%, 40.8, 24.7, -0.9, 6.5%, 0.6, 6.5%
38) CSc1ccccc1OCc1cc(C(=O)N2CCc3c(Cl)cccc3C2)no1
  ., 13.3, 23.9, 2.2, 12.0%, 2.1, 2.0%
39) CCOc1ccc(N(C)C(=O)CCc2nnc3ccc(N4CCCCC4)nn23)cc1
  -0.1%, 10.1, 9.1, ., 16.9%, 0.5, -0.6%
40) O=C(Cc1ccccc1Cl)NNC(=O)Nc1ccccc1
  0.3%, -6.7, -4.2, 0.9, 14.1%, 3.2, -1.9%
41) Cc1c(Cl)cccc1NC(=O)CCN1CCCC(C)C1 (configuration not stated)
  2.1%, 9.8, 17.9, -1.9, 13.5%, -0.4, ?
42) CCCn1nc(NC(=O)COC)c2cc3cc(C)ccc3nc21
  -21.5%, ., ?, 1.7, 3.9%, ., 1.3%
43) COc1ccc(NS(=O)(=O)c2cc(NC(=O)c3cccc(OCc4c(C)noc4C)c3)ccc2OC)cc1
  0.5%, -1.7, 2.2, 2.2, 19.7%, 2.7, 12.8%
44) O=c1[nH]c2ccc(S(=O)(=O)N3CCN(c4ccccc4F)CC3)cc2s1
  0.0%, 9.7, 2.1, 4.2, 5.9%, 6.1, -2.9%
45) CCOc1ccccc1NC(=O)c1ccc2c(O)c(S(=O)(=O)c3ccccc3)c(=O)[nH]c2c1
  -4.5%, -16.9, ., ., ., 0.2, 0.7%
46) COc1ccc(NC(=O)c2ccc(NC(=O)COC(=O)CC(NC(=O)c3ccccc3Cl)c3ccccc3)cc2)cc1 (configuration not stated)
  -4.0%, 7.6, 2.7, 4.9, -6.3%, 0.0, -1.3%
47) Cc1ccc(-n2nnnc2SCC(=O)Nc2sc(C)c(C)c2C#N)cc1C
  0.2%, 10.8, 15.4, 1.6, -18.1%, 1.1, .
48) O=C(Cn1cc(C(=O)c2cccs2)c2ccccc21)Nc1ccc(Br)cc1
  -0.9%, 4.8, ., ., ., -0.1, 0.5%

Outcome played no part in choosing rows. Share with any hit: about 4.4%.
